Bioassay records as filed in PubChem BioAssay.
TRPML1 inh = human mucolipin-1 channel inhibition | TRPML1-inducible cells, Ca2+ dye fluorescence, FDSS; hits give low values; inhibition of EC80 agonist-evoked calcium signal | activity change, negative = inhibition, % (no concentration beside the values) | AID 624415 | 390,000 compounds, 0.02% hits | Q9GZU1; in the data active means activity change below about -50%; inconclusive means about -30% to -50%; inactive means above about -30%;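 further: stimulus is agonist 54-4 at its EC80 concentration; on the % scale 0 is the no-effect control and ±100 the full control effect; compound concentration not given in the record; the text of the record puts the active cut at -80%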
Target sequence (Q9GZU1 whole entry, looked up): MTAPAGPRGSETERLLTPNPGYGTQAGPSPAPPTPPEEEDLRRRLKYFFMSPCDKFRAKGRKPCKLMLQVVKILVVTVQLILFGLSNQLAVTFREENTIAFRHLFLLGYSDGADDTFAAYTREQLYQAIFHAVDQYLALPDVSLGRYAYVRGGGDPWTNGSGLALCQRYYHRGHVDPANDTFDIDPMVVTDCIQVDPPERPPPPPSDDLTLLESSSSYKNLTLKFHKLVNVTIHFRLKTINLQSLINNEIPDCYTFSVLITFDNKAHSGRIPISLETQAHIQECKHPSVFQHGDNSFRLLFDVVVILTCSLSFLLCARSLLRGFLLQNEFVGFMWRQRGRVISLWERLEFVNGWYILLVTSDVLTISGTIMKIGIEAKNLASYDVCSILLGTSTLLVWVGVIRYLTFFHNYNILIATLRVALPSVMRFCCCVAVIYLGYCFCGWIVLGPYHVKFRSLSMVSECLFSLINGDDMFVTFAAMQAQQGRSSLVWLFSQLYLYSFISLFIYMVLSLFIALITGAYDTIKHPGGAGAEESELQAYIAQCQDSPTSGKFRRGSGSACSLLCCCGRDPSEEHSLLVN
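Calcium fluorescence in TRPML1-DL cells induced overnight with Tet: a 110 s read after compound pin addition, then a 110 s antagonist read after challenge with 54-4 at 4 uM final (EC80).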
TRPML1 agonist = human mucolipin-1 channel agonism; TRPML1-expressing cells, Ca2+ dye fluorescence, FDSS; host cell line not named in the record; reference of the full effect not given here; AID 624414; 410,000 compounds, 0.12% hits; activation, % (test concentration not listed); Q9GZU1; in the data active = activation above about 50%; inconclusive = about 30% to 50%; inactive = below about 30%; further: 0% is about no effect; the text of the record puts the active cut at 80%
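In this qHTS format, compounds were pin-transferred onto Ca8-dye-loaded TRPML1-DL cells induced with Tet overnight, and intracellular Ca2+ fluorescence was recorded kinetically for 110 s after a 10 s baseline. A subsequent 4uM final 54-4 (EC80) addition followed by a second 110 s read served as the antagonist phase.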
PINK1 expr mod = changes PINK1 expression; AID 624263; PINK1 immunofluorescence, high-content cytometry, 24 h; 410,000 compounds, 0.2% hits; Potency, µM (titrated, usually from 76.6 µM), without a hit: at the highest dose activation (PINK1 increase), actives largely listed as activators; active = well fitted activation curve with a large enough effect; inconclusive = small, poorly fitted or top-dose-only effect; inactive = flat fitted curve, though single readings scatter; cell line not stated here;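 further: potency means the concentration at half of the fitted maximal effect; % of control where 0% means no effect; nearly all actives have a fitted effect of over 65% in size; a mitochondrial uncoupler was the plate control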
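PINK1 protein level read as immunofluorescence by microplate cytometer in a fixed, stained stable cell line after 24 h exposure to five compound concentrations, with CCCP as control.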
ClpP mod = qHTS Assay for Activators of ClpP; Potency, µM (series often up to 57.5 µM), for the others: at the highest dose activity change, negative = active; 340,000 compounds, 1.9% hits; AID 651965, 2013; purified B. subtilis ClpP, FRET peptide cleavage, 20 min; active = well fitted falling curve with a large enough effect; inconclusive = small, poorly fitted or top-dose-only effect; inactive = no such curve, though single readings can be large or run the other way; further: potency means the concentration at half of the fitted maximal effect; the source files actives as falling curves though it sought activators and does not explain the sign; nearly all actives have a fitted effect of over 65% in size; many hits overshoot -100%
Target sequence (P80244 whole entry, looked up): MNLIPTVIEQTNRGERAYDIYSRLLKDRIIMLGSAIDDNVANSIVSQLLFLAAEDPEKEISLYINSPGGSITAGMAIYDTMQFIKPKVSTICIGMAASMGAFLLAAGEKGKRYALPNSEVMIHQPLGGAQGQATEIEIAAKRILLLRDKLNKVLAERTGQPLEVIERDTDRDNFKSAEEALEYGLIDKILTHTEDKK
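Purified B. subtilis ClpP, 10 microg/mL final in Tris/HCl pH8 with KCl, BSA, glycerol and Tween-20, cleaved an Abz/nitrotyrosine-quenched decapeptide. Fluorescence (ex 320, em 430) was read at 0 and 20 min at room temperature. Delta was normalized to 5.8 microM ADEP and DMSO/no-enzyme controls.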
Menin-MLL FL inh = inhibitors of human menin-MLL interaction, wild-type MLL peptide; FP activity change, % at 61.4 µM; Fluorescence polarization, fluorescein-MLL peptide displacement from menin; 290,000 tested, under 10 active; inconclusive = falling polarisation curve, or a change in total fluorescence; inactive = total fluorescence flat and polarisation flat or rising; no compound was filed as active; the % refers to the polarisation; negative = inhibition;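 further: % of control where 0% means no effect; inhibitors lower the polarisation; unlabelled MLL peptide was the positive control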
TRPV1 PAM = human TRPV1 potentiation | Q8NER1 | TRPV1-expressing cells, Fluo-8 calcium influx, capsaicin EC20 potentiation; host cell line not named in the record; control for the full effect not named in the record | potentiation, % at 8.33 µM | 320,000 compounds, 0.02% hits | AID 540277; active means potentiation above 80%; inconclusive means 30% to 80%; inactive means below 30%; further: 0% is about no effect
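Cells expressing TRPV1 were dye-loaded with Fluo-8 and read kinetically: 10 s baseline, 3 min after compound (agonist portion), then 2 min after EC20 capsaicin (allosteric enhancer portion). Calcium-bound dye fluorescence at 480/520 nm.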
Sfp PPTase inh = inhibitors of Bacillus subtilis Sfp phosphopantetheinyl transferase. Biochemical Sfp PPTase activity, qHTS. Potency, µM, for the others: max response, negative = inhibition, usual class: inhibitors. Q9F4F7. 310,000 compounds, 3.5% hits; active means well fitted inhibition curve with a large enough effect; inconclusive means small, poorly fitted or top-dose-only effect, or another doubt; inactive means no such curve, though single readings can be large or run the other way;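 further: the enzyme is Sfp with the accession as filed and its product quenches rhodamine fluorescence; potency means the concentration at half of the fitted maximal effect; 0% = enzyme reaction without inhibitor and -100% = no enzyme wells; top concentration of the series not given in the record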
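Reaction rates are the 30-min fluorescence difference (ex 525, em 598 nm) in wells containing 15 nM Sfp, 5 uM rhodamine-CoA and 12.5 uM BHQ-2-YbbR at pH 7.6 with 10 mM MgCl2.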
* marks the source's active call; other numbers are inactive results; ? = inconclusive; . = not tested or not shown; & = joins results of further samples; [ ] = remark or other dose.

SMILES	TRPML1 inh	TRPML1 agonist	PINK1 expr mod	ClpP mod	Menin-MLL FL inh	TRPV1 PAM	Sfp PPTase inh
CCn1c(=O)cc(N2CCOCC2)[nH]c1=O	8	-0.2	1.6%	.	1.5	4	11%
CC1(C)Cc2c(c(=S)nc(-c3ccccc3)n2Cc2cccnc2)CO1	1	-0.4	0.3%	-0.7%	0.8	3	2%
CC1CCCCC1NC(=O)c1ccc2c(c1)OCCO2 (centres undefined)	7	-0.7	-0.7%	1.7%	.	-2	.
CCc1ccc2c(c1)[C@H]1OCC[C@H]1[C@@H](c1cccs1)N2	13	3.0	0.3%	-2.2%	-2.8	-11	-5%
Cc1ccc(N2C(=O)N(CC(=O)NCc3ccc(Cl)cc3)C(=O)C2C)cc1 (centres undefined)	-8	1.7	-1.7%	0.0%	1.5	-24	8%
COc1ccc(-n2c(=O)c(-c3cccs3)nc3cncnc32)cc1	.	.	0.4%	.	?	.	-1%
COc1ccc2[nH]cc(CCN=C(NC(=O)c3ccccc3C)Nc3nc(C)cc(C)n3)c2c1	-12	3.0	1.0%	-1.7%	.	.	.
COc1cccc(C(=O)N=c2sc3c(C)ccc(OC)c3n2C)c1	14	0.1	-0.7%	4.3%	0.1	-23	0%
CCCc1nc2c(nnn2Cc2ccccc2)c(=O)[nH]1	-14	0.1	4.3%[38.3 µM]	-3.6%	1.4	-1	13%
CN(Cc1ccccc1)C(=O)COC(=O)c1ccc(Br)c(S(=O)(=O)N2CCOCC2)c1	15	3.8	1.5%	-1.8%	.	.	.
Cc1noc2ncnc(N3CCN(c4ccc(F)cc4)CC3)c12	-2	-0.1	2.3%	10%	-3.9	14	6%
C#CCOCCOCCOCCNc1nc(N2CCN(C(=O)Cn3cc(CCCN=C(N)N)nn3)CC2)nc(N2CCN(C(=O)[C@H](CCCCN)n3cc(CC(C)O)nn3)CC2)n1 (some centres undefined)	15	0.2	1.5%	-0.1%	.	1	.
Cc1ccc(NC(=O)CN2C(=O)NC3(CCCCCC3)C2=O)cc1Cl	-2	0.5	6.6%	-0.7%	.	-1	.
O=C(NCC(c1ccco1)N1CCN(c2ccc(F)cc2)CC1)C1CCCCC1 (centres undefined)	-9	0.2	-5.5%	-1.5%	.	-15	.
NC(=O)c1ccc(NC(=O)C2CCCO2)cc1 (centres undefined)	-1	-0.6	-0.6%	-3.3%	0.7	-2	3%
COC(=O)C1=C(C)Nc2nnnn2C1c1ccco1 (centres undefined)	-12	-0.8	1.5%	-4.7%	7.6	?	0%
OCCSc1ccc2nnc(-c3ccccc3)n2n1	.	-0.3	0.8%	4.5%	.	.	.
c1coc(-c2nc3ccccn3c2Nc2ccc3c(c2)OCCO3)c1	25	0.5	-0.6%	4.4%	.	.	.
CCc1noc(C)c1C(=O)OCC(=O)Nc1c(F)cccc1F	6	0.2	1.3%	.	.	-6	.
COc1cc2nc(-c3ccccc3C)oc(=O)c2cc1OC	-25	-0.4	6.6%	0.6%	-0.7	3	5%
COc1ccc(C(=O)NC(=O)CSc2nnc(-c3ccco3)n2-c2ccccc2)cc1	30	-0.9	-2.2%	-11%	-0.2	8	?
Cc1cccc(NC(=O)CN2CCN(C(=O)c3cnn(Cc4ccccc4)c3)CC2)c1C	-9	0.1	-0.3%	-1.1%	.	12	.
O=C(Cc1ccc(F)cc1)Nc1nc(-c2ccc(F)cc2)cs1	2	-0.4	3.3%	.	5.4	-31	12%
Cc1ccc(NC(=O)CCC(=O)c2ccccc2)cc1	9	0.0	2.4%	-2.5%	.	.	.
CCN(C[C@H]1N[C@@](Cc2ccccc2)(C(=O)OC)[C@H]2C(=O)N(C)C(=O)[C@@H]12)C(=O)c1ccc(C)cc1	-13	-0.8	-0.2%	0.6%	.	.	.
N#CCn1nnc(-c2ccc3c(c2)OCO3)n1	-8	-0.1	6.5%	0.8%	2.5	-3	-1%
Cc1cccc(NC(=O)[C@H](Cc2ccccc2)NC(=O)[C@@H]2Cc3ccccc3CN2)c1	19	-0.6	-0.9%	0.0%	.	-3	-4%
CCOCC(=O)Nc1ccccc1C(=O)OCC	29	-0.4	4.4%	-27%	3.3	-6	13%
Clc1cc2c(nn1)Nc1ccccc1S2	28	1.2	-0.8%	-1.3%	-1.2	2	22%
COc1ccc(N(CC(=O)NC2CC3CCC2C3)S(=O)(=O)c2ccc(C)cc2)cc1OC (centres undefined)	4	1.0	-0.7%	.	.	?	13%
Cc1ccc(CCC(=O)Nc2ccc(C#N)cc2)o1	22	3.5	2.1%	-0.6%	.	2	-2%
O=C(Nc1sc2c(c1C(=O)N1CCCCC1)CCCC2)c1ccccc1Cl	8	-0.4	7.0%	-2.8%	.	.	.
COC(=O)C1CCN(C2CN(Cc3ccc(C)cc3)S(=O)(=O)C2)CC1 (centres undefined)	.	-0.4	-0.7%	-3.8%	.	.	.
CC(NC(=O)C(C)N1C(=O)C2C3CC(C(Br)C3Br)C2C1=O)c1ccccc1 (centres undefined)	4	17	1.4%	0.9%	3.3	-2	6%
COc1ccccc1C(=O)NCCC(=O)Nc1ccc(S(=O)(=O)N2CCCC(C)C2)cc1 (centres undefined)	-6	0.7	1.6%	-0.5%	.	6	.
CC(C)C[C@@H](CO)N1CCN(Cc2ccc(Br)cc2)CCC1=O	5	1.7&0.5	-0.6%	0.2%&-0.2%	-1.1	8	-1%
O=S(=O)(Nc1cccc2ccccc12)c1ccccc1F	-8	2.2	3.7%	.	2.8	5	9%
COc1ccccc1CNC(=O)CCc1c(C)nn(-c2ccc(N3CCCCC3)nn2)c1C	-6	0.4	0.5%	-2.5%	.	.	.
Cc1ccc2[nH]c3c(=O)n(N)c(C)nc3c2c1	16	0.2	-0.6%	.	6.1	-4	11%
Cc1cccc(Cn2c(SCc3ccc(C(=O)NC4CCCCC4)cc3)nc3cccnc32)c1	1	-0.3	1.0%	-0.7%	.	.	.
CC(Sc1nc2ccccc2o1)C(=O)O (centres undefined)	16	-0.4	19%[38.3 µM]	-1.5%	3.8	-4	13%
COc1cccc(CNC(=O)C2Cc3cc(S(=O)(=O)N4CCCCCC4)ccc3N2C(C)=O)c1 (centres undefined)	-13	-0.7	-0.2%	0.8%	.	.	.
CN(c1ccccc1)c1nc(N)c([N+](=O)[O-])c(NC2CCCCC2)n1	-5	0.6	11%	1.2%	3.5	-7	7%
COc1ccc(-c2ccc3[nH]c4c(c3c2)CCN2C[C@H]3[C@H](C)ON(C)[C@H]3C[C@@H]42)cc1	37	1.4	5.5%	-11%	.	.	.
CC(C)c1nnc(NC(=O)CS(=O)(=O)c2ccccc2)s1	-1	0.9	-1.8%	.	-3.2	3	2%
CC1CCN(C(=O)N2c3ccccc3Sc3ccccc32)CC1	1	1.6	28%	-0.5%	1.7	-4	-15%
O=c1[nH]c(SCc2cccc(F)c2)nc2ccccc12	13	2.1	6.4%	-2.3%	-3.3	?	7%
CC(=O)Nc1ccc(S(=O)(=O)N2CCSc3ccccc32)cc1	28	0.5	2.4%	-4.4%	.	.	.
O=C(O)c1ccccc1SCc1cn2cc(Cl)ccc2n1	4	0.0	0.2%	.	1.8	10	-22%
COc1ccc(C(=O)O)cc1S(N)(=O)=O	7	0.5	0.2%	-0.3%	1.9	-1	7%
Cc1ccc(-n2nc(C(=O)N(C)Cc3ccccc3)c3c4ccccc4n(C)c3c2=O)cc1	-2	-0.4	-0.3%	-6.9%	.	.	.
COc1cc2c3c(c1)/C(=C1/SC(NC(C)=O)=NC1=O)C(=O)N3C(C)(C)C=C2C	21	0.5	1.8%	-1.3%	-1.1	9	35µM*
COc1ccc([C@H]2CC(=O)C=C(c3ccc(SC)cc3)C2)cc1OC	20	1.0	3.2%	-3.8%	.	7	.
Cc1ccccc1N1C(N)=NC(N)=NC1(C)C	-27	1.0	-0.4%	-3.1%	3.7	-2	13%
Cc1ccc(CCNC(=O)NCc2noc3ccccc23)cc1	-1	3.7	-0.1%	1.0%	.	.	.
CCN(CC(=O)Nc1ccc(N2CCOCC2)cc1)C(=O)COc1ccccc1OC	12	0.7	-1.1%	.	-1.6	19	14%
Cc1nnc2c(NC3CCCCC3)nc3ccccc3n12	1	4.1	8.7%	4.6%	3.7	-23	14%
NS(=O)(=O)c1ccc2nc(NC(=O)COc3ccc(Cl)cc3Cl)sc2c1	7	0.2	-0.8%	0.4%	.	.	.
CCN(CC)S(=O)(=O)c1ccc(N2CCOCC2)c(NC(=O)c2ccc3ccccc3c2)c1	-6	2.1	0.3%	?	3.1	19	-1%
Oc1ccc(/C=N\Nc2cc(N3CCOCC3)nc(N3CCOCC3)n2)c(O)c1	-18	2.0	12%	1.0%	2.5	-1	-2%

Look-ups from the entries so far.
Result of CC1CCN(C(=O)N2c3ccccc3Sc3ccccc32)CC1 under TRPML1 inh: 1
Result of Cc1ccc(-n2nc(C(=O)N(C)Cc3ccccc3)c3c4ccccc4n(C)c3c2=O)cc1 under TRPML1 agonist: -0.4

New compounds follow.
SMILES	TRPML1 inh	TRPML1 agonist	PINK1 expr mod	ClpP mod	Menin-MLL FL inh	TRPV1 PAM	Sfp PPTase inh
O=C(Nc1cccc([N+](=O)[O-])c1)N(c1ccccc1)c1ccccc1	12	2.4	0.6%	-1.3%	.	.	.
COc1ccc(N(C(=O)C2CCCCC2)C2C=CS(=O)(=O)C2)c(OC)c1 (centres undefined)	25	0.2	1.8%[38.3 µM]	0.2%	1.4	-35	7%
CCNC(=O)C1CCCN(Cc2ccc(OCc3ccccc3)cc2)CC1 (centres undefined)	.	-0.7	-1.4%	0.4%	.	.	.
O=C(Nc1ccc(N2CCOCC2)c2nonc12)C1CCCC1	13	-1.2	0.2%	0.5%	-14	-7	?
Cc1ccc(S(=O)(=O)N2[C@@H](c3ccc(Br)cc3)C(C(=O)O)=C[C@H]2CC2CCCC2)cc1	15	-0.6	-0.4%	2.2%	.	.	.
CCN(CC)C(=O)c1c(C)nc2ccccn12	10	-0.1	1.1%	-6.4%	3.0	4	-5%
O=C(CSc1nnc(CNc2ccc(F)cc2)n1Cc1ccccc1)N1CCOCC1	32	0.2	-0.3%	1.9%	1.2	-6	9%
Cc1cc(=O)[nH]c(SCC(=O)Nc2cc(S(=O)(=O)N3CCCC3)ccc2Cl)n1	.	.	-0.1%	-0.7%	4.6	2	13%
